Bioassay records (PubChem)
D2 agonist – agonists of human D2 dopamine receptor (beta-arrestin) | P14416 | DiscoveRx PathHunter D2 beta-arrestin, luminescence, 90 min; 100% = 57 uM dopamine signal | activation, % (no concentration beside the values) | hit rate 0.084% among 360,000 | AID 624465; in the data active = activation above about 40%; inconclusive = about 15% to 40%; inactive = below about 15%; also: compound concentration not given in the record; the text of the record calls up to 30% inactive
Target sequence (P14416 whole entry, looked up): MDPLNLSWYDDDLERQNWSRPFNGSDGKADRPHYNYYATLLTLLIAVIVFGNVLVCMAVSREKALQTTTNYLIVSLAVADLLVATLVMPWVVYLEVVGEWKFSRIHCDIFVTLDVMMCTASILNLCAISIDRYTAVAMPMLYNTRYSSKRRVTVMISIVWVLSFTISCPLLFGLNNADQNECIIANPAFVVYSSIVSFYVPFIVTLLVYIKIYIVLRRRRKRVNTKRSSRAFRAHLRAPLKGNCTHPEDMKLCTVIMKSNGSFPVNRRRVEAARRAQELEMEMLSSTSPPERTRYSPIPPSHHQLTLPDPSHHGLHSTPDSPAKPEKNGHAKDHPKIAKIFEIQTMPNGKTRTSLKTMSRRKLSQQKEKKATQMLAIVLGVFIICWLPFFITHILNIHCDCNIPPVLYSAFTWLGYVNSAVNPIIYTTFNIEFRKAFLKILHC
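DiscoveRx PathHunter D2 beta-arrestin cells (2,100/well) attached overnight, then compound-stimulated 90 min at 37 C in HBSS/10 mM HEPES/0.1% Tween-20 buffer; beta-galactosidase complementation read by luminescence after 1 h at ambient temperature. Dopamine 57 uM final (EC100) as control.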
PINK1 expr mod – PINK1 expression modulation; PINK1 immunofluorescence, high-content cytometry, 24 h; Potency, µM (series often up to 76.6 µM), inactives show at the highest dose activation (PINK1 increase), actives largely listed as activators; hit rate 0.2% among 410,000; AID 624263; active = well fitted activation curve with a large enough effect; inconclusive = small, poorly fitted or top-dose-only effect; inactive = flat fitted curve, though single readings scatter; cell line not stated here;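 also: potency is read from the fitted curve at half-maximal effect; % of control where 0% means no effect; nearly all actives have a fitted effect of over 65% in size; a mitochondrial uncoupler was the plate control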
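PINK1 protein level read as immunofluorescence by microplate cytometer in a fixed, stained stable cell line after 24 h exposure to five compound concentrations, with CCCP as control.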
TRPML1 agonist – activates the human TRPML1 channel; Q9GZU1; TRPML1-expressing cells, Ca2+ dye fluorescence, FDSS; host cell line not named in the record; reference of the full effect not given here; activation, % (no concentration beside the values); hit rate 0.12% among 410,000; AID 624414; in the data active = activation above about 50%; inconclusive = about 30% to 50%; inactive = below about 30%; also: 0% is about no effect; the text of the record puts the active cut at 80%
Target sequence (Q9GZU1 whole entry, looked up): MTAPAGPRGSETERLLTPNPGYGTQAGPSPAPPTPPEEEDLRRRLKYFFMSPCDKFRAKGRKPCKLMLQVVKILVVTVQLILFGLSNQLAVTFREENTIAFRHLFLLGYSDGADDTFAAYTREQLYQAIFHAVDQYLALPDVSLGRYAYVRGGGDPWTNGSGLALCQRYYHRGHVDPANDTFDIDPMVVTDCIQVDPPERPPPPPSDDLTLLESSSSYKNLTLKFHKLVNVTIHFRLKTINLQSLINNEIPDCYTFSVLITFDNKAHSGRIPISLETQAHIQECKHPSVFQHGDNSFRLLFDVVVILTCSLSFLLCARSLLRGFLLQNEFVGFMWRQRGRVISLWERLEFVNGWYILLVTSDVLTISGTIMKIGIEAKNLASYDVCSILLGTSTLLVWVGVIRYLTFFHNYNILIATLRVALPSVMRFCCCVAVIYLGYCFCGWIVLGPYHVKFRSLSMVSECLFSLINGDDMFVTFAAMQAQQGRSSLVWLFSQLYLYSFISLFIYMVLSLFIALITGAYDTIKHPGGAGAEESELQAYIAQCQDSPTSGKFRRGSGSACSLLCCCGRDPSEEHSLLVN
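In this qHTS format, compounds were pin-transferred onto Ca8-dye-loaded TRPML1-DL cells induced with Tet overnight, and intracellular Ca2+ fluorescence was recorded kinetically for 110 s after a 10 s baseline. A subsequent 4uM final 54-4 (EC80) addition followed by a second 110 s read served as the antagonist phase.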
D2 PAM – human D2 receptor positive allosteric modulation. DiscoveRx D2 beta-arrestin cells, luminescence, 90 min; 100% = 57 uM dopamine signal. potentiation, % (test concentration not listed). hit rate 0.23% among 360,000. AID 624464; active = potentiation of 50% or more; inconclusive = 30% to 50%; inactive = 30% or less;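 also: compound concentration not given in the record; tested on top of an EC20 dose of dopamine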
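PathHunter D2 cells, attached overnight at 37 deg C, received compound in DMSO plus dopamine at EC20 (50 nM final) for 90 min at 37 deg C. Beta-arrestin recruitment was read as luminescence after 1 h with detection reagent at ambient temperature.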
TRPML1 inh – inhibitors of human TRPML1 channel. Q9GZU1. TRPML1-inducible cells, Ca2+ dye fluorescence, FDSS; stronger effect = lower value; inhibition of EC80 agonist-evoked calcium signal. activity change, negative = inhibition, % (concentration not given with the values). hit rate 0.02% among 390,000. AID 624415; in the data active means activity change below about -50%; inconclusive means about -30% to -50%; inactive means above about -30%;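 also: stimulus is agonist 54-4 at its EC80 concentration; % is scaled to controls: 0 for no effect and ±100 for the full control effect; compound concentration not given in the record; the text of the record puts the active cut at -80%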
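TRPML1-DL cells, Tet-induced overnight (~16 h, 37 °C) at 1,500 cells/well, were loaded with Ca8 no-wash dye plus quencher for 45-90 min at room temperature. Compounds were pinned during FDSS kinetic reading; agonist 54-4 at EC80 (4 uM final) then added.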
Six1-Eya2 blk – Six1/Eya2 interaction inhibition | AlphaScreen GST-Six1/His-Eya2 binding, biochemical; stronger effect = lower value; control for the full effect not named in the record | activity change, % (test concentration not listed) | hit rate 0.56% among 360,000 | AID 651725; in the data active = activity change below about -65%; inconclusive = about -30% to -65%; inactive = above about -30%; also: % is scaled to controls: 0 for no effect and ±100 for the full control effect; compound concentration not given in the record
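GST-Six1 + His-Eya2 (5X stock: 250/500 nM); Tris pH 8.0, 300 mM NaCl, 0.05% BSA, 0.02% Tween 20; GSH donor/Ni acceptor beads; 1 h 37 °C dark; AlphaScreen readout.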
* hit, by the source's call; u = inconclusive; x = no result given; & = joins results of further samples; [ ] = another dose, or the depositor's remark.

SMILES	D2 agonist	PINK1 expr mod	TRPML1 agonist	D2 PAM	TRPML1 inh	Six1-Eya2 blk
CC(=O)OCC(=O)Nc1ccc(SC(F)F)cc1	1.5	0.1%	1.5	-3	-3	-1
O=C(NCCc1ccccc1)C(=O)Nc1cccc(Br)c1	x	5.6%	1.6	x	-11	x
COc1cccc(N(CC(=O)NC2CCCCC2)C(=O)CCCC(=O)Nc2ccccn2)c1	-4.9	-0.4%	0.0	-3	-1	7
Cc1cc(C)nc(NC(=S)NC(=O)c2ccccc2)n1	0.8	4.3%	1.0	-19	6	1
O=C(Nc1nc(-c2ccc(Cl)s2)cs1)c1ccco1	2.3	6.1%	1.7	6	33	-8
CCCCN1C(=O)C2(OCCCO2)c2cccc(C)c21	2.0	5.2%	-0.7	-4	23	0
C=CCN1CCN(c2ccncc2S(=O)(=O)N2CCOCC2)CC1	-3.3	-1.0%	-0.7	-10	16	-1
O=C1CN(C(=O)c2cccc(S(=O)(=O)N3CCCC3)c2)c2ccccc2N1	-4.9	1.6%	-0.8	-12	29	7
Cc1ccc(C)c(N2CCN(C(=O)c3cc4ccccn4n3)CC2)c1	-1.1	0.1%	2.3	-5	0	-10
COc1ccc(CCNC(=O)c2ccc(N3CCCC3=O)cc2)cc1OC	-2.6	-1.2%[38.3 µM]	-0.3	-5	-3	2
O=C(Cc1ccc(-n2c(=O)c3ccccc3n(Cc3ccc(F)cc3)c2=O)cc1)NCC1CCCO1 (stereo not given)	-2.7	3.3%	0.9	7	-10	-6
CCn1c(=O)ccc2cc([N+](=O)[O-])ccc21	2.9	2.1%	0.3	0	-3	1
Cc1nc(Nc2cnc(/C=C/c3cc(C(=O)Nc4cccc(C(F)(F)F)c4)ccc3C)cn2)cc(N2CCNCC2)n1	0.0	-2.0%	1.4	-16	-9	31
COc1ccc(C2c3c(n(C)c4ccccc34)C(=O)N2CC(=O)Nc2ccc(Cl)cc2)cc1 (stereo not given)	x	4.1%	1.7	x	-5	x
COc1ccc(-c2csc3ncn(-c4ccc(C)cc4)c(=O)c23)cc1OC	1.5	5.5%	2.5	-3	2	-1
CCC(=O)N1CCN(c2nc(-c3ccccc3)c3c(c2C#N)CCCC3)CC1	-0.8	0.8%[38.3 µM]	-0.4	-14	-7	7
CCOC(=O)C1CCCN(C(=O)c2cc3ccccc3oc2=O)C1 (stereo not given)	-2.7	-0.1%	-0.7	-5	-6	5
COc1ccccc1OCC(=O)Nc1cccc(-c2nnc(-c3ccco3)o2)c1	4.2	-2.2%	6.2	16	-10	-19
O=C(Nc1ccc(Cc2ccncc2)cc1)c1cc(F)c(F)cc1Cl	-7.2	1.2%	0.3	-14	51	15
CC1(C)C(=O)OC(c2cccn2-c2ccc([N+](=O)[O-])cc2)C(C)(C)C1=O (stereo not given)	3.2	0.4%	0.2	-2	12	0
CC(C)Oc1ccc(S(=O)(=O)N2CCOCC2)cc1NC(=O)C1=COCCO1	1.7	-1.7%	-1.0	5	45	11
N#Cc1ccc(-c2ccc(Cl)cc2)nc1SCC(=O)c1cccc(Cl)c1	-2.8	7.9%	-0.4	-8	-4	0
CCOC(=O)C1=C(CSc2nc3ccccc3s2)NC(=O)NC1c1cc(C)ccc1C (stereo not given)	2.8	x	0.8	-7	-6	-14
CC(C)n1cc(/C=N\NC(=O)c2cc3c(ccc4ccccc43)o2)c2ccccc21	2.0	0.9%	1.7	-5	4	22
O=C(Nc1ccc(F)cc1)N(Cc1cccs1)Cc1cc2cc3c(cc2[nH]c1=O)OCO3	4.8	5.5%	0.8	-3	-7	-5
COCOc1cccc(CN2CCC2(C)C(=O)NCCNC(C)=O)c1 (stereo not given)	-3.1	1.1%	0.6	2	x	30
Cc1sc2ncn(CC(=O)NCCN(C)C)c(=O)c2c1S(=O)(=O)N1CCC(C)CC1	-5.4	0.3%	-0.9	-5	15	-10
CCN(c1ccccc1)S(=O)(=O)c1c(-c2ccc(C)cc2)csc1C(=O)OC	x	-0.4%	3.4	x	36	x
O=C(CCC(=O)Nc1cccc(Cl)c1)N/N=C/c1cc([N+](=O)[O-])ccc1O	-8.9	4.4%	-0.5	-20	-10	u
CN(C)C(=O)c1ccc2c(c1)n(C)c(=O)n2C	0.0	-1.6%	4.3	12	2	-2
O=C(Nc1ccc(NS(=O)(=O)c2ccccc2)cc1)c1ccc(Cl)cc1	-1.9	9.7%	1.9	-14	9	10
CC1CCC(C(C)C)C(OCC[N+](C)(C)C)C1 (stereo not given)	-3.4	1.2%	1.2	-11	15	9
CCNC(=O)COc1ccc(/C=N/NC(=O)c2cccnc2)cc1OC	-2.1	-0.9%	0.4	-2	-16	4
O=C1Nc2cc(C(=O)NCC3CCCO3)ccc2S/C1=C/c1ccccc1F (stereo not given)	-6.5	9.3%	-0.1	-10	5	-8
CCn1c(CNC(=O)c2cccc(C)c2)nnc1SCC(=O)NC1=NCCS1	0.7	1.2%	-0.6	-2	-10	-1
COC(=O)c1ccc(NS(=O)(=O)c2c(C)nc3sccn3c2=O)cc1	x	2.1%	-0.6	x	-21	x
COc1ccc(CCNC(=O)CCS(=O)(=O)c2ccc3c(c2)NC(=O)CS3)cc1OC	-3.4	-1.1%	0.2	-4	3	0
CCn1cc(CN2CCc3c([nH]c4ccccc34)C2c2cccc(OC)c2OC)c(C)n1 (stereo not given)	-1.2	3.3%	1.5	-10	7	-10
O=C(C1CCCN(S(=O)(=O)c2cccs2)C1)N1CCc2ccccc2C1 (stereo not given)	-2.6	1.4%	0.8	-4	37	8
CCOC(=O)Cn1c(=O)oc2cc(S(=O)(=O)NC(C)c3ccccc3)ccc21 (stereo not given)	0.1	-0.8%&1.7%	-0.3&-0.7	-1	9&8	-1
CCOC(=O)Nc1ccc(C)cc1NC(=O)OCC	-5.5	-0.9%	-0.1	-10	11	-8
COc1ccccc1CNC(=O)c1ccc(Nc2nc3ccccc3n3nnnc23)cc1	x	u	-0.1	x	-8	x
CCOC(=O)c1c(C)oc2ccc(OCC(=O)N(CC)CC)cc12	-2.8	-0.7%	-0.1	-1	6	-69*
COc1ccc(NC(=O)Nc2cccc3c2O[C@H](CN(C)S(=O)(=O)c2cn(C)cn2)[C@@H](C)CN([C@H](C)CO)C3=O)cc1	1.9	1.4%	-0.9	-10	11	-2
CCC(=O)/C=C1\Sc2ccc(OC)cc2N1CCO	-2.9	-2.4%	-0.6	1	-7	-3

Entries listed so far that have a cyano group:
SMILES	D2 agonist	PINK1 expr mod	TRPML1 agonist	D2 PAM	TRPML1 inh	Six1-Eya2 blk
CCC(=O)N1CCN(c2nc(-c3ccccc3)c3c(c2C#N)CCCC3)CC1	-0.8	0.8%[38.3 µM]	-0.4	-14	-7	7
N#Cc1ccc(-c2ccc(Cl)cc2)nc1SCC(=O)c1cccc(Cl)c1	-2.8	7.9%	-0.4	-8	-4	0

Continued.
SMILES	D2 agonist	PINK1 expr mod	TRPML1 agonist	D2 PAM	TRPML1 inh	Six1-Eya2 blk
COc1ccc(C(CC(=O)O)NC(=O)COc2ccccc2)cc1OC (stereo not given)	-2.1	0.3%	0.3	2	2	4
CCCOC1CCCN(Cc2nc(-c3ccc(C(=O)OC)cc3)no2)C1 (stereo not given)	3.4	0.7%	1.1	-3	27	4
O=C(O)c1ccc(N=Cc2c(O)ccc3oc4c(c23)CCCC4)cc1	-4.0	0.0%	-0.4	-15	0	9
Cc1ccc(CCNC(=O)C2CCN(S(=O)(=O)c3ccc4c(ccn4C)c3)CC2)cc1	x	-0.9%	2.5	x	21	x
COc1ccc(Nc2nc(Cl)nc(NCc3ccco3)n2)cc1	0.1	2.3%	-0.6	-6	10	-4
CCC(C)(C)NC(=O)C1CCC(CNS(=O)(=O)c2cccc3nsnc23)CC1 (stereo not given)	0.1	-1.4%	-0.2	-3	-7	1
C/C(=N\N=C(c1ccccc1)c1ccccc1)c1cccs1	-5.1	4.6%[38.3 µM]	1.0	-19	-7	-12
Cc1ccc(N(CC(=O)N2CCN(c3ccccc3)CC2)S(=O)(=O)c2c(C)noc2C)cc1	x	-0.5%	-0.5	x	-17	x
CCCCNC(=O)C1(C)CCC(=O)N1CC(F)(F)F (stereo not given)	2.6	1.3%	-0.7	3	x	5
c1ccc(-c2nnc(CSc3nnc(-c4ccncc4)n3Cc3ccco3)o2)cc1	1.4	1.3%	1.7	8	-10	2
Cc1sc2nc(SCC(=O)N3CCOCC3)[nH]c(=O)c2c1-c1ccccc1	0.5	1.6%	0.8	9	-5	-3
O=C(N/N=C/c1ccccn1)c1ccc(NC(=O)c2cccc([N+](=O)[O-])c2)cc1	-4.5	6.8%	3.2	1	2	u
CCC1CCCN1Cn1cnc2c([nH]c3ccccc32)c1=O (stereo not given)	-1.5	-2.3%	0.3	-12	-13	4
O=C(O)C(F)=C(c1ccccc1)c1ccccc1	-1.3	0.3%	0.1	2	-12	3
Cc1noc(C)c1CCC(=O)N1CCCC(CCC(=O)NCc2ccccc2F)C1 (stereo not given)	9.7	-0.6%	0.7	-4	-17	2
C/C(=N/Nc1nc(C)cc(C)n1)c1ccc(Br)cc1	0.1	-0.7%	1.3	2	1	-4
CCOc1ccc(CCNC(=O)CCn2c(=O)c3cccn3c3cccnc32)cc1	x	-1.3%	-0.1	x	3	x
O=C(CCn1c(=O)oc2ccccc21)NCc1cccs1	0.6	-6.0%[38.3 µM]	-0.2	-9	-3	2
Cc1ccc(C(=O)CN2C(=O)NC3(CCOc4ccccc43)C2=O)s1 (stereo not given)	1.9	4.2%	-0.9	-3	35	-8
O=C(O)CCc1ccc(-c2ccccc2)n1-c1cccc(C(=O)O)c1	-5.1	4.5%	0.2	-5	-6	4
COc1ccc(-c2cc(C(=O)N3CCN(S(=O)(=O)c4ccccc4)CC3)[nH]n2)cc1	-2.4	0.1%	0.7	1	10	-5
O=C(C1CCN(S(=O)(=O)c2cccc3nonc23)CC1)N1CCN(c2cccc(Cl)c2)CC1	x	3.0%	3.6	x	23	x
Cc1ccc(C)c(NC(=O)c2ccc(S(=O)(=O)N(C)CC3CCCO3)cc2)c1 (stereo not given)	-2.1	-2.7%	-0.3	10	17	-4
CCn1cc(C(=O)Nc2ccc(Cl)cc2Cl)cn1	-1.7	-0.9%	-0.8	-3	-3	22
CS(=O)(=O)N(Cc1ccc(Cl)cc1)c1ccc(C(=O)NCCC2=CCCCC2)cc1	-2.9	u	1.7	-5	-4	0

Some of these compounds in order of number of heavy atoms, falling:
SMILES	D2 agonist	PINK1 expr mod	TRPML1 agonist	D2 PAM	TRPML1 inh	Six1-Eya2 blk
CS(=O)(=O)N(Cc1ccc(Cl)cc1)c1ccc(C(=O)NCCC2=CCCCC2)cc1	-2.9	u	1.7	-5	-4	0
O=C(CCn1c(=O)oc2ccccc21)NCc1cccs1	0.6	-6.0%[38.3 µM]	-0.2	-9	-3	2
CCn1cc(C(=O)Nc2ccc(Cl)cc2Cl)cn1	-1.7	-0.9%	-0.8	-3	-3	22

Rows were taken by chance; overall some 1% were active at least once.
